# Assay outcomes as filed in PubChem BioAssay.
# Bead autofluor = compound fluorescence in toxin protease inhibitor counterscreen; compound autofluorescence counterscreen, microsphere flow cytometry; hits give high values; fluorescence intensity (no concentration beside the values); 360,000 compounds, 3.1% hits; AID 624483;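 active = at least 3 SD above the mean of all compounds, about 16000 in these data; inconclusive = too few beads counted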;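 also: 100 nL of 1 mM stock went into each well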
# ugtP null kill = kills S. aureus RN4220 lacking UgtP; 330,000 compounds, 0.54% hits; growth inhibition, % (concentration not given with the values); AID 1259309; S. aureus RN4220 ugtP deletion, OD600 growth, 16 h; some inactives read as strong as hits;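 active = z-score under -3 and OD600 up to 0.15 on both plates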;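 also: plate controls were untreated wells for no effect and antibiotic for full effect; wells of about 80 µL received 100 nL stock; the first replicate is given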
# BJeLR lethal = BJeLR cell viability loss; BJeLR (HRASV12) viability, CellTiter-Glo ATP luminescence, 48 h; reference of the scale not given here; inhibition, % (test concentration not listed); 300,000 compounds, 0.17% hits; AID 1554;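 active = replicate mean above 50%; inconclusive = above 50% but judged a plate artefact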;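 also: 50 nL library stock added to about 25 µL; numbers are from one replicate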
# PrP 5UTR inh = suppresses PrP 5' UTR mRNA reporter expression. cell-based PrP 5' UTR mRNA reporter, plate reader. inhibition, % (test concentration not listed). 340,000 compounds, 0.35% hits;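 active = every replicate at 50% or more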;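 also: 0 = median of the neutral control wells; tested in H4 reporter cells; numbers are from one replicate; inactives centre near -14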
# Sa RN4220 lethal = S. aureus RN4220 growth inhibition | OD600, 16 h | inhibition, % (no concentration beside the values) | 330,000 compounds, 0.33% hits;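 active = z-score of -3 or lower and OD600 up to 0.18 on both plates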;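 also: plate controls were untreated cells for no effect and reference antibiotic for full effect; stock transfer was 100 nL into about 80 µL; one replicate is shown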
# Mtb hypoxia rep = inhibitors of hypoxia-regulated fluorescent reporter in Mycobacterium tuberculosis; M. tuberculosis hypoxia-regulated fluorescent reporter, fluorescence; fluorescence inhibition, % (concentration not given with the values); 300,000 compounds, 0.1% hits; AID 1159583;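 active = 35 to 45% if threefold the growth effect, above 45% if 1.5-fold the growth effect; inactive = the rest, general growth blockers included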;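 also: wells of about 50 µL received 100 nL stock; 0% = vehicle wells and 100% = reference inhibitor wells; whole bacteria with a GFP reporter of the hypoxia response; strong numbers were not always called active; many hits fall short of the cut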
# Mtb hypoxia rep growth = further read-out of Mtb hypoxia rep, marked with its call; growth inhibition, %; measured here: M. tuberculosis growth (absorbance);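 0% = vehicle and 100% = reference antibiotic; read after six days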
# An asterisk follows results filed as active; ? = inconclusive; . = not tested or not shown.
SMILES	ugtP null kill	PrP 5UTR inh	BJeLR lethal	Sa RN4220 lethal	Bead autofluor	Mtb hypoxia rep growth	Mtb hypoxia rep
CNC(C)C(=O)NC(C(=O)N1CCCC1C(=O)NNc1ccccc1)C(C)C (stereo not drawn)	3	-37	.	4.2	3852	8	3
CCc1ccc(NC(=O)C2CCCN(S(=O)(=O)c3ccc4c(c3)CC(C)N4C(C)=O)C2)cc1 (stereo not drawn)	9	-21	1	2.3	5386	7	4
COc1ccc(S(=O)(=O)N(CC(=O)Nc2ccccc2C(=O)N2CCOCC2)c2ccc(F)cc2)cc1	3	-30	-3	-2.0	4857	0	1
CS(=O)(=O)Nc1ccc(C(=O)NCCC2=CCCCC2)cc1	7	-21	-1	2.9	24230*	0	3
O=C(CSc1nnc(COc2ccccc2)o1)c1ccccc1	-19	-26	-4	-1.8	5875	6	-4
Cc1ccc(NC(=O)COC(=O)/C=C/c2cccs2)c(C)c1	-1	-19	-11	-1.0	1907	9	-12
Cc1cc(Br)ccc1NC(=O)CN(C)C(=O)C1CCN(c2ncnc3sc(C)c(C)c23)CC1	-8	14	.	-7.1	4313	6	-4
COC(=O)c1cc2ccsc2n1Cc1cccc(F)c1	17	-19	-5	-3.8	2138	2	1
Cc1cccc(C(=O)NC(=S)NNC(=O)COc2c(C)cccc2C)c1	60	-16	-4	72	2220	3	-9
COc1ccc(-c2sccc2C(C)C(=O)O)cc1 (stereo not drawn)	9	-8	-5	0.8	2961	2	0
COc1cc(C=NNC(=O)CC23CC4CC(CC(C4)C2)C3)cc(Br)c1OCC(=O)N(C)C	-21	.	.	-0.1	.	4	4
O=S(=O)(Nc1ccccc1N1CCCCC1)c1ccc(F)cc1	-5	-22	4	8.6	3643	10	5
CC(C)C(=O)Nc1ncc(C(F)(F)F)cc1Cl	3	-24	-3	-2.3	8418	6	5
CCOC(=O)C1=C(c2ccccc2)NC(=O)NC1c1ccc(OCC#N)c(OC)c1 (stereo not drawn)	4	-8	0	2.0	4132	.	.
CCOC(=O)c1ccc(NC(=O)NCc2c(C)nn(CC)c2C)cc1	5	-12	5	8.4	4327	6	8
Cc1ccc(S(=O)(=O)N2CCC(=O)N(C(COCc3cccc(C(F)(F)F)c3)Cc3ccccc3)CC2)cc1 (stereo not drawn)	6	-15	4	-1.3	4471	6	1
COc1cc(NC(=O)c2cccc(F)c2)ccc1NC(=O)c1cc2ccccc2o1	12	-21	9	0.6	3518	11	13
COc1ccc2ccc(=O)oc2c1CC(=O)C(C)C	2	-17	.	4.7	5266	.	.
CCCc1cc(=O)oc2cc(C)cc(OCC(=O)NCC(O)c3ccccc3)c12 (stereo not drawn)	2	-13	0	6.3	6048	6	7
COc1cc(OC)c(NS(=O)(=O)c2coc(C(N)=O)c2)cc1Cl	1	-8	-5	-3.3	5806	.	.
CN(C)CC(C)(C)CNS(=O)(=O)CC12CCC(CC1=O)C2(C)C (stereo not drawn)	15	-14	-3	9.5	4355	9	7
O=C(NCc1ccco1)c1ccccc1Br	2	-30	-10	1.7	8753	5	13
Cc1c(Cl)cccc1NC(=O)COC(=O)Cc1ccsc1	3	-10	.	3.6	8793	4	-1
CCN(C(=O)COC(=O)CNC(=O)c1ccc(C)cc1)c1c(N)n(Cc2ccccc2)c(=O)[nH]c1=O	12	-12	.	7.7	.	1	5
Cc1csc(SCC(=O)NC(=O)NC(C)(C)C)n1	3	-19	-3	5.5	2267	4	1
O=C(CSc1nc2c(cnn2-c2cccc(Cl)c2)c(=O)[nH]1)NCC1CCCO1 (stereo not drawn)	-4	-17	.	-1.1	?	1	13
COc1ccc(NC(=O)CN2CCN(c3nc(-c4cccc(OC)c4)cs3)CC2)cc1	4	0	-11	3.1	6269	2	6
NC(=S)N/N=C/c1c(O)ccc2ccccc12	.	26	-6	.	3525	.	.
CC12CCC(CC1=NOC(=O)c1cccc([N+](=O)[O-])c1)C2(C)C (stereo not drawn)	0	.	.	5.5	.	-3	10
CCN(C(=O)CSc1nnc2c3ccccc3n(CC)c2n1)C1CCS(=O)(=O)C1 (stereo not drawn)	-4	-13	7	0.7	2513	3	-2

# Single records, from the list above. Order of screens: ugtP null kill, PrP 5UTR inh, BJeLR lethal, Sa RN4220 lethal, Bead autofluor, Mtb hypoxia rep growth, Mtb hypoxia rep
# COc1cc(OC)c(NS(=O)(=O)c2coc(C(N)=O)c2)cc1Cl across the screens: 1, -8, -5, -3.3, 5806, ., .
# COc1ccc(NC(=O)CN2CCN(c3nc(-c4cccc(OC)c4)cs3)CC2)cc1 across the screens: 4, 0, -11, 3.1, 6269, 2, 6

# More entries.
SMILES	ugtP null kill	PrP 5UTR inh	BJeLR lethal	Sa RN4220 lethal	Bead autofluor	Mtb hypoxia rep growth	Mtb hypoxia rep
O=C(CCCOc1ccc(Cl)cc1Cl)NCCc1ccccn1	0	-11	-17	4.5	3825	8	7
Nc1nccc(-c2ccc(-n3cnc4ccccc43)cc2)n1	0	14	6	4.7	4417	10	7
COc1ccc(S(=O)(=O)n2c(CCN3CCOCC3)nc3ccccc32)cc1	7	-15	1	0.6	3346	-2	2
CC(=O)Nc1ccc(S(=O)(=O)N(C)CC(=O)NCCOc2ccccc2)cc1	7	3	.	2.6	3878	5	8
COc1ccc(OC)c(S(=O)(=O)Nc2cccc(-c3ccc4nncn4n3)c2)c1	7	-13	3	0.5	2263	-3	4
COc1cc2c(cc1OC)/C(=C/C(=O)N1CCOCC1)NC(C)(C)C2	-2	.	3	-2.2	.	.	.
Cc1ccc(NC(=O)c2ccc(S(=O)(=O)N3CCCC3)cc2)nc1	4	-30	-2	1.4	6488	-7	8
CC(=O)c1ccc(-c2nnc(CCC(=O)N(C)Cc3c(C)nc4ccccn34)o2)s1	7	-30	3	8.8	3429	7	17
COc1ccc(S(=O)(=O)N(C)CC2Oc3ccc(NC(=O)Cc4ccccc4)cc3C(=O)N(C(C)CO)CC2C)cc1 (stereo not drawn)	2	.	.	-0.4	.	11	12
CCCCOC(=O)n1c(=O)oc2cc(S(=O)(=O)N3CCCCC3)ccc21	2	.	9	1.9	11587	5	9
CCOc1ccc2c(c1)C(c1ccc(C)cc1)=NNC(c1ccc(C)cc1)=N2	11	-49	-7	-15	3299	11	22
Cc1ccc(NC(=O)NC2C(NC(=O)Nc3ccc(C)cc3)N(C)C(=O)N2C)cc1 (stereo not drawn)	0	-12	-2	1.1	18428*	3	3
COc1ccccc1NS(=O)(=O)c1cccc(C(=O)NCc2ccco2)c1	5	-21	-8	6.3	4427	16	9
CCOC(=O)Cn1c(-c2ccc(Cl)nc2)nc2ccccc21	1	3	12	5.5	22764*	0	-3
CCOc1ccccc1C(=O)N(Cc1ccccc1)Cc1cc2cc3c(cc2[nH]c1=O)OCCO3	2	-1	-3	3.3	7889	5	13
CCOC(=O)N1CCN(S(=O)(=O)c2ccc3c(c2)SC(C)C(=O)N3)CC1 (stereo not drawn)	2	-26	2	0.4	4247	6	0
COc1cc(OC)cc(C(=O)OCC(=O)N2CCCC2)c1	6	5	-5	1.4	5387	8	-5
COc1ccc(C2OCC3(CO2)SC(N)=NC3=O)cc1 (stereo not drawn)	3	-16	-8	2.9	11738	8	6
CCCn1c(C)nc2c(c1=O)c1nc3ccccc3nc1n2-c1ccccc1	-9	-18	.	-2.8	4496	-9	-1
COc1ccc(OC)c(NC(=S)N2CCN(C(=O)C3CCCO3)CC2)c1 (stereo not drawn)	4	-12	0	0.0	6448	-3	-1
CCc1nnc(NC(=O)CN2CCN(Cc3cccc(F)c3)CC2)s1	-1	-5	-11	5.0	4570	8	-1
Cc1cnccc1NC(=O)c1cccs1	13	-4	1	0.6	2547	5	2
CN(C)S(=O)(=O)c1ccc(C(=O)NCc2cccs2)cc1	4	-17	-7	1.9	9939	-6	1
COc1cc(/C=C/C(=O)OCC(=O)c2c(N)n(C)c(=O)n(C)c2=O)ccc1O	8	-3	-2	5.0	2079	0	-15
CC(C)(C)OC(=O)N1CCC(CNC(=O)c2ccccc2)CC1	2	-19	-2	1.2	4515	-1	9
Cc1nc(SCC(=O)NCCc2ccccc2)c2c(=O)n(C)c(=O)n(C)c2n1	3	8	-4	8.2	5615	14	8
O=C(NCCCn1ccnc1)c1ccc(S(=O)(=O)Nc2ccccc2)cc1	5	-29	-2	7.8	4726	2	11
O=C(O)CS(=O)(=O)c1ccc(Oc2ccc(S(=O)(=O)CC(=O)O)cc2)cc1	-4	.	-4	7.5	.	11	13
Cc1ccc(C2N3CCCN23)cc1 (stereo not drawn)	-2	-1	-2	2.9	6588	5	12
CC(C)CC(NC(=O)C1CCCN1C(=O)[C@@H](C)NC(=O)OCc1ccccc1)C(=O)NCC(N)=O (stereo partly drawn)	7	-20	-17	0.4	3989	1	17

# Just Sa RN4220 lethal, ugtP null kill and Mtb hypoxia rep, for some of the entries so far:
structure | Sa RN4220 lethal | ugtP null kill | Mtb hypoxia rep
O=C(O)CS(=O)(=O)c1ccc(Oc2ccc(S(=O)(=O)CC(=O)O)cc2)cc1 | 7.5 | -4 | 13
CCc1nnc(NC(=O)CN2CCN(Cc3cccc(F)c3)CC2)s1 | 5.0 | -1 | -1
CN(C)S(=O)(=O)c1ccc(C(=O)NCc2cccs2)cc1 | 1.9 | 4 | 1

# (continued)
SMILES	ugtP null kill	PrP 5UTR inh	BJeLR lethal	Sa RN4220 lethal	Bead autofluor	Mtb hypoxia rep growth	Mtb hypoxia rep
Cn1c(NNC(=O)C(c2ccccc2)c2ccccc2)cc(=O)n(C)c1=O	1	-16	1	2.3	3674	4	-10
C/C(=N/NS(=O)(=O)c1ccc(C)cc1)c1c(O)c2ccccc2oc1=O	.	-20	3	.	4233	.	.
CCOc1cc(NC(=S)Nc2cccc(OC)c2)c(OCC)cc1NC(=O)C(C)C	3	-10	-4	3.3	23255*	6	6
CCCNC(=O)C(Cc1ccccc1C)NC(=O)c1ccc(C(F)(F)F)cc1 (stereo not drawn)	-1	-17	.	1.8	3744	8	-2
COc1ccc(/C=C/C(=O)NC(=S)Nc2ccccn2)cc1	8	.	2	-0.4	3943	0	13
COc1cccc(C2NC(=O)CCC2[N+](=O)[O-])c1 (stereo not drawn)	-1	-5	-13	3.2	3103	-5	-3
CC(NC(=S)NC1CCC(C(C)(C)C)CC1)c1ccccc1 (stereo not drawn)	-25	-13	1	-8.3	5589	9	-2
NC[C@H]1O[C@H](O[C@H]2[C@H](O)[C@@H](O[C@H]3O[C@H](CO)[C@@H](O)[C@H](N)[C@H]3O)[C@H](N)C[C@@H]2N)[C@H](N)C[C@@H]1O	.	0	-7	.	4230	.	.
CCOC(=O)C1CN(S(C)(=O)=O)c2cc(CC(=O)OC)ccc2O1 (stereo not drawn)	4	-15	0	4.1	4141	4	-6
COCCNC(=O)C(c1ccc(C)o1)N(CC1CCCO1)C(=O)Cn1nnc2ccccc21 (stereo not drawn)	3	-17	-2	4.2	3659	.	.
CC(C)CC(NS(=O)(=O)c1ccccc1)C(=O)O (stereo not drawn)	3	-34	-1	3.0	5339	13	20
CN(Cc1ccccc1)C(=O)c1[nH]cnc1C(=O)NCC(=O)OC(C)(C)C	-7	-19	9	6.1	3542	-1	3
COc1ccc(CCNC(=O)c2cccc(-n3cnnn3)c2)cc1	4	-21	.	0.2	3683	15	4
O=C(Cn1cc([N+](=O)[O-])ccc1=O)NCc1ccc(Cl)cc1Cl	-3	-6	1	7.5	5264	5	4
NC(=O)c1c(NC(=O)C2CC=CCC2C(=O)O)sc2c1CCCCC2 (stereo not drawn)	-2	47	-7	-0.8	6055	8	13
CC(=NNC(=S)Nc1cccc(C)c1)c1ccco1	-3	.	.	-2.3	.	1	18
Cc1nn(CC(=O)NCCCN2C(C)CCCC2C)c(=O)c2cc3occc3n12 (stereo not drawn)	-1	-23	8	3.4	5133	1	6
Cc1ccc(C(=O)C[n+]2cccc3cc(C)ccc32)cc1	1	-24	6	5.6	9902	15	9
CC(C)CC(NS(=O)(=O)OCC(Cl)(Cl)Cl)c1ccccc1 (stereo not drawn)	-5	-19	4	-4.7	3706	17	13
O=C(Nc1ccccc1N(C(=O)c1ccco1)S(=O)(=O)c1cccs1)c1ccco1	2	1	0	6.8	4729	.	.

# Random draw from the library; any-hit rate near 4%.
